VACV Venus inh – qHTS for Stage-Specific Inhibitors of Vaccinia Orthopoxvirus: Venus Reporter Primary qHTS. Vaccinia virus Venus reporter expression, fluorescence. Potency, µM (highest dose often 36.5 µM), inactives show at the highest dose activity change, negative = inhibition, actives largely listed as inhibitors. hit rate 0.46% among 330,000. AID 720580, 2013; active means well fitted inhibition curve with a large enough effect; inconclusive means small, poorly fitted or top-dose-only effect; inactive means no such curve, though single readings can be large or run the other way; tested in A549 cells; note: nearly all actives have a fitted effect of over 30% in size; inactives centre near -10
VACV mCherry inh – qHTS for Stage-Specific Inhibitors of Vaccinia Orthopoxvirus: mCherry Reporter Primary qHTS; Vaccinia virus mCherry reporter infection, fluorescence; about a quarter of the inactives have no number; Potency, µM (titrated, usually from 36.5 µM), without a hit: at the highest dose activity change, negative = inhibition, actives largely listed as inhibitors; hit rate 0.63% among 310,000; active = well fitted inhibition curve with a large enough effect; inconclusive = small, poorly fitted or top-dose-only effect; inactive = no such curve, though single readings can be large or run the other way; tested in A549 cells; note: nearly all actives have a fitted effect of over 35% in size; inactives centre near -10
* = called active by the depositor; i = inactive; ? = inconclusive; . = not tested or not shown; & = joins results of further samples; [ ] = another dose, or the depositor's remark. % is set by controls: 0 for no effect and ±100 for the full control effect; potency is the fitted concentration of half-maximal effect.

Sequence of screens: VACV Venus inh | VACV mCherry inh
Cc1cccc(NC(=O)NCCOCCn2c(=O)oc3ccccc32)c1C
    -7% | -1%
Cc1cc(C)n(-c2c(F)c(F)c(CN3CCOCC3)c(F)c2F)n1
    -6% | .
COc1cc(OC)c(OC)cc1CCC(C)NCCC(c1ccccc1)c1ccccc1 (configuration not stated)
    ? | ?
O=C(COC(=O)CNC(=O)C1CCCCC1)NC1CCCC1
    -7% | i
Cc1ccc(C(=O)OCC(=O)N2C(C)CCCC2C)s1 (configuration not stated)
    -11% | i
CS(=O)(=O)N1CCN(c2ccccc2NC(=S)NC(=O)c2ccco2)CC1
    -12% | -18%
COc1cc(/C=N/NC(N)=O)cc([N+](=O)[O-])c1O
    -19% | -4%
O=C(O)CCc1nc(-c2ccccc2)c(-c2ccccc2)o1
    -13% | -11%
CC(C)C(=O)NC(=S)Nc1ccc(S(=O)(=O)N2CCN(C)CC2)cc1
    -3% | 3%
COc1ccc(OC(=O)COc2ccc(Cl)cc2)cc1
    5% | -7%

Next records:
Sequence of screens: VACV Venus inh | VACV mCherry inh
COc1ccc(C(=O)Nc2ccccc2C(=O)NC(Cc2ccc(O)cc2)C(=O)NNC(=O)c2ccccc2Cl)cc1 (configuration not stated)
    -9% | -19%
O=C(COc1ccc(Br)cc1Br)NC(=S)N1CCCc2ccccc21
    -1% | -15%
O=C(C1CCOC1)N1CCOc2ccc(CN3CCC(Oc4cccnc4)CC3)cc2C1 (configuration not stated)
    -1% | -6%
O=C(CCc1nc2ccccc2c(=O)[nH]1)Nc1ccc(Cl)c(Cl)c1
    -16% | 6%
CCOC(=O)c1[nH]c(C)c(CCC(=O)Nc2ccccc2C(=O)OC)c1C
    -29% | ?
COc1cccc(NC(=O)Cn2nc(N3CCN(c4ccccc4)CC3)ccc2=O)c1
    2% | -10%
Clc1ccc(C2=CSC3=NCCN23)cc1Cl
    10% | .
COc1ccc(-c2nc(SCC(=O)Nc3ccc4c(c3)OCO4)c(-c3ccc(F)cc3)[nH]2)cc1OC
    -16% | -14%
CC(=O)NC1=NN(C(C)=O)C(C)(c2ccccn2)S1 (configuration not stated)
    3% | i
Cc1nnc2c3ccccc3c(-c3ccccc3)nn12
    -6% | -11%

Other compounds
Sequence of screens: VACV Venus inh | VACV mCherry inh
Cc1nnc(NC(=O)CSc2nccn2C)s1
    3% | -3%
Cc1ccc(-n2nnnc2-c2cccs2)cc1[N+](=O)[O-]
    -11% | -10%
CCN1/C(=C/c2cc[n+](C)cc2)C=Cc2cc(C)ccc21
    -3% | ?
CCCCCn1c(=O)[nH]c2cc(C(=O)N3CCN(c4ccccc4F)CC3)ccc2c1=O
    -12%&-22% | -23%
COc1ccc(S(=O)(=O)N2CCCCC2)cc1NC(=O)C1CC1(Cl)Cl (configuration not stated)
    -11% | i
COc1ccccc1CNC(=O)COc1ccc(S(=O)(=O)N2CCCC2)cc1
    -20% | i
Cc1cccc(S(=O)C(c2ccccc2)c2ccccc2)c1 (configuration not stated)
    -8% | -15%
O=c1[nH]c(O)c(N=Nc2cc([N+](=O)[O-])ccc2O)c(=O)[nH]1
    75%[activator] | -15%
COc1ccc(NC(=O)c2ccc(-c3cccc(Cl)c3C)o2)cc1
    -9% | -10%
CCOC(=O)c1c(-c2ccc(OC)cc2)oc2c1C(OC(C)=O)CCC2 (configuration not stated)
    -10% | i

Remaining list, next part
Sequence of screens: VACV Venus inh | VACV mCherry inh
CC1(C)CC2CC(C)(CN2C(=O)NC(=O)c2ccccc2)C1 (configuration not stated)
    -17% | i
COc1ccc(NC(=O)C2CCN(C(=O)C3CC(=O)N(c4ccc(C)cc4)C3)CC2)cc1 (configuration not stated)
    -19% | -8%
CCn1nc(C)cc1-c1n[nH]c(=S)n1N
    -3% | .
Cc1ccc(NC(=O)COc2ccc(Br)cc2C)cc1
    -10% | -9%
COC(=O)[C@@H]1C[C@H](NC(=O)c2cc(C(F)(F)F)ccc2Cl)CN1Cc1cccc(O)c1
    8% | -6%
COc1ccc(NC(=O)CN2C(=O)CSc3ccc(S(=O)(=O)N4CCCC4)cc32)cc1OC
    -4% | -8%
COCCN1C(=O)N[C@@H](c2ccccc2)C(C(C)=O)=C1C
    -11% | -2%
COc1cccc(Cn2cc(/C=N/NC(=O)c3cc(O)cc(O)c3)c3ccccc32)c1
    -10% | i
COc1ccccc1C(=O)NCC(=O)OCc1nnc(-c2ccccc2)o1
    -11% | i
CC(OC(=O)C1=COCCO1)C(=O)NC(C)c1ccc(Cl)cc1Cl (configuration not stated)
    -19% | -4%

New compounds follow
Sequence of screens: VACV Venus inh | VACV mCherry inh
O=C(O)c1ccc(N2C(=O)CSC2=S)cc1
    88%[activator] | -2%
Nc1c(C(=O)NCC2CCCO2)sc(=S)n1-c1ccccc1 (configuration not stated)
    2% | -7%
C/C(=N\NC(=O)C1COc2ccccc2O1)c1ccccn1 (configuration not stated)
    ? | 4.5µM*
Cc1ccc(C(=O)Nc2nc(-c3ccc4c(c3)OCCO4)cs2)o1
    -15% | -6%
CCNC(=O)Nc1nc2ccccc2s1
    -9% | -11%
CC(=O)c1cc(-c2ccccc2)n(CCC(=O)NC(C)(C)C)c1C
    -9% | -14%
CC(NC(=O)c1noc2c1CCCCC2)c1ccccc1 (configuration not stated)
    -13% | -1%
O=C(NCc1ccc(Cl)cc1)C1CCC(=O)N(C2CCCCCC2)C1 (configuration not stated)
    -24% | -6%
CCN(C(=O)c1cccn(Cc2cccc(Cl)c2)c1=O)c1ccccc1
    -11% | -8%
CCOCCCNC(=O)/C(C#N)=C/c1ccc(C)o1
    -12% | -14%

Looked up one by one from the entries so far, 5 records:
Sequence of screens: VACV Venus inh | VACV mCherry inh
C/C(=N\NC(=O)C1COc2ccccc2O1)c1ccccn1 (configuration not stated)
    ? | 4.5µM*
O=C(O)c1ccc(N2C(=O)CSC2=S)cc1
    88%[activator] | -2%
CCNC(=O)Nc1nc2ccccc2s1
    -9% | -11%
CC(=O)c1cc(-c2ccccc2)n(CCC(=O)NC(C)(C)C)c1C
    -9% | -14%
CC(NC(=O)c1noc2c1CCCCC2)c1ccccc1 (configuration not stated)
    -13% | -1%

Next section.
Sequence of screens: VACV Venus inh | VACV mCherry inh
NS(=O)(=O)c1ccc(CCNC(=S)NC2CCCCC2)cc1
    -8% | -9%
O=C(Cn1nc(-c2ccccc2)nc(Cc2ccccc2)c1=O)Nc1ccc(Cl)cc1
    -7% | -12%
Cc1cccn2c(=O)nc(SCC(=O)NCc3ccccc3)nc12
    -2% | -23%
COc1cccc(N2CCN(C(=O)c3ccc(=O)oc3)CC2C)c1 (configuration not stated)
    ? | -9%[1.46 µM]
Nc1nn(S(=O)(=O)c2ccccc2)cc1-c1ccc([N+](=O)[O-])cc1
    -25% | -27%
OCCN(CCO)CC(O)COc1ccc2c(c1)OCO2 (configuration not stated)
    30%[activator] | .
CC(CNC(=O)Cn1cnc2c(NCc3ccccc3)ncnc21)c1ccccc1 (configuration not stated)
    -11% | i
O=C(CSc1nnc2ncccn12)N1CCCCCC1
    -13% | -12%
O=C(NC1CCCC1)C(c1ccc(F)cc1)N(C(=O)Cc1cccs1)c1ccc2c(c1)OCCO2 (configuration not stated)
    -8% | -14%
CN(C)c1ccc(NC(=O)c2ccc3nsnc3c2)cc1
    -20% | -2%

Further entries.
Sequence of screens: VACV Venus inh | VACV mCherry inh
COc1ccccc1CNC(=O)N1CCN(c2ccccc2C)CC1
    9% | -16%
COc1cc(/C=N/NC(=S)Nc2cccc(Cl)c2C)ccc1OCC(=O)N1CC(C)OC(C)C1 (configuration not stated)
    -28% | -21%
COc1cc(C)c(Cl)cc1S(=O)(=O)NCC1CCCO1 (configuration not stated)
    6% | .
COc1ccc(C2CC(C(F)(F)F)n3nc(C(=O)O)c(Cl)c3N2)cc1OC (configuration not stated)
    ? | .
COc1ccc(CCNC(=O)COc2cc(C)cc3oc(=O)c(C)c(C)c23)cc1OC
    -5% | 1%
CCOC(=O)c1cccc(NC(=O)CN(c2ccc(C)cc2)S(=O)(=O)c2c(C)noc2C)c1
    -11% | i
Nc1ccc2c(Cl)cc(Cl)cc2c1
    -27% | ?
CC(=O)Nc1cc(C(=O)NCc2ccc(C)cc2)ccc1Sc1ccc(C)cc1
    -7% | -11%
Cc1cc(F)ccc1C(O)c1ncc(-c2ccc3ccccc3c2)[nH]1 (configuration not stated)
    -16% | -10%
CCN1C[C@@H]2[C@@H]3C(=O)N(C)C(=O)[C@@H]3[C@](CC)(C1=O)N2C(=O)c1ccc(C(C)(C)C)cc1
    2% | -20%

Further structures
Sequence of screens: VACV Venus inh | VACV mCherry inh
Cc1nc(C)c(C(=O)Nc2ccc(Oc3ccccc3)cc2)o1
    -18% | -4%
CCN(C(=O)COc1ccccc1[N+](=O)[O-])C1CCS(=O)(=O)C1 (configuration not stated)
    -8% | -9%
CCc1nc2c(OCc3ccc(F)cc3)cccn2c1N(C)C(=O)COc1ccccc1
    -19% | -5%
Cc1ccc(C(=O)NCc2ccc3c(c2)CCN3C(=O)c2ccc(C)cc2)cc1
    -15% | -23%
CC(C)Sc1nc2ccccc2n2cnnc12
    -15% | i
O=C(CCCOc1ccccc1)Nc1ccc(Cl)c(S(=O)(=O)N2CCOCC2)c1
    -28% | -12%
COc1ccccc1C(=O)O/N=C(\c1ccccc1)c1ccncc1
    -18% | -10%
Cc1ccc(C(=O)Nc2nc(=O)n(C(=O)c3ccccc3C)s2)cc1
    -14% | .
CCOc1ccc(CN(CCc2ccc3c(c2)OCO3)Cc2cccc(C)c2)cc1
    -13%[7.34 µM] | -14%[7.34 µM]
CC1(C)N=C(N)NC(Nc2ccccc2Cl)=N1
    0% | -7%

Full records as entered above. Screens in order: VACV Venus inh | VACV mCherry inh
Cc1ccc(C(=O)Nc2nc(=O)n(C(=O)c3ccccc3C)s2)cc1 in the list: -14% | .
COc1ccccc1C(=O)O/N=C(\c1ccccc1)c1ccncc1 in the list: -18% | -10%
Cc1ccc(C(=O)NCc2ccc3c(c2)CCN3C(=O)c2ccc(C)cc2)cc1 in the list: -15% | -23%

Next section:
Sequence of screens: VACV Venus inh | VACV mCherry inh
O=C(Nc1ccccc1Br)C1CC(=O)N(c2ccc3c(c2)OCCO3)C1 (configuration not stated)
    -10% | i
N[C@H](CC(=O)O)C(=O)O
    -9% | -13%
C=CCn1c(=O)/c(=C\c2ccccn2)s/c1=C(/C#N)C(=O)NCC1CCCO1 (configuration not stated)
    -11% | i
COc1ccc(OCC(=O)Nc2cccc(NC(=O)COc3ccc(OC)cc3)n2)cc1
    ? | ?
CC1(C)Cc2c(sc(NC(=O)c3ccccc3)c2C(=O)O)CO1
    -22% | -5%
COc1ccc(NC(=O)Cn2c(=O)n(Cc3ccccc3)c(=O)c3oc4ccccc4c32)cc1Cl
    -17% | -4%
CCOc1cc2[nH]c(=O)n(CCCC(=O)NCc3ccco3)c(=O)c2cc1OCC
    -20% | -24%
Cc1ccccc1C1C(C#N)=C2N=C(N)c3ccccc3N2C2=C1C(=O)CCC2 (configuration not stated)
    1% | 68%[activator]
S=c1[nH]nc(-c2ccc(Cl)cc2)n1CC1CCCO1 (configuration not stated)
    -21% | -8%
CC(C)N1CCN(c2ccc(OC[C@H]3CO[C@](Cn4cncn4)(c4ccc(Cl)cc4Cl)O3)cc2)CC1
    -28% | -7%

Next structures
Sequence of screens: VACV Venus inh | VACV mCherry inh
CC1=CC(C)(C)N(C(=O)CSc2ncn[nH]2)c2ccc(C)cc21
    -15% | i
Cc1ccc(/C=C2\SC(=S)N(CCCC(=O)Nc3ccc(O)cc3)C2=O)cc1
    -5% | -25%
O=C(Cn1cnc([N+](=O)[O-])c1)NC1CCCC1
    -14% | -3%
CC(=O)Nc1ccc(NC(=O)C2Cc3c(-c4ccc5c(c4)OCO5)ccnc3O2)cc1 (configuration not stated)
    6% | -13%
Cn1c(=O)c2nc(-c3ccc(Cl)cc3Cl)oc2c2ccccc21
    -26% | ?
Cc1ccc(S(=O)(=O)N2CCN=C2c2ccccc2)cc1C
    -5% | -10%
COCCn1c(SC)nnc1-c1c[nH]c2ccccc12
    -6% | i
CCOC(=O)c1cc2c(ccn2C)n1CC(=O)N(Cc1ccccc1)c1ccc(F)cc1
    -7% | 0%
COc1ccc(/C=N/NC(=O)CNC(=O)/C=C/c2ccccc2OC)cc1
    -12% | -3%
O=C(Nc1cccc(C(=O)O)c1)/C(=C\C=C\c1ccccc1)NC(=O)c1ccccc1
    -8% | -1%

Next section
Sequence of screens: VACV Venus inh | VACV mCherry inh
C=CC[C@@H](CC(=O)NCCO)C(=O)N[C@@H](COC(=O)[C@@H](CC=C)Cc1ccc(F)cc1)Cc1c[nH]c2ccccc12
    ? | -27%
C=CCC[C@@H](Cc1ccc(F)cc1)C(=O)OC[C@@H](Cc1c[nH]c2ccccc12)NC(=O)[C@H](CC=C)CC(=O)NCCO
    ? | -27%
CC(=O)OC(C(=O)NC1CCCCC1)c1ccc(C#N)cc1 (configuration not stated)
    -11% | -6%
CCc1cccc(NC(=O)CN(C)S(=O)(=O)c2cccc3cccnc23)c1
    -17%&-12% | -3%
CCN1CCN(c2cc(N3CCCC3)c(F)cc2[N+](=O)[O-])CC1
    ? | ?
CCOC(=O)c1[nH]c(=S)n(Cc2ccccc2)c1C(=O)OCC
    -12% | i
C=CCOC(=O)C1=C[C@H](c2coc3ccccc3c2=O)[C@@H](CCCO)[C@H](OCC)O1
    -7% | i
Cc1cc(C)nc(/N=C(\N)Nc2ccc([N+](=O)[O-])cc2)n1
    2% | -20%

Screens (PubChem)
